Vaccinia Venus – qHTS for Stage-Specific Inhibitors of Vaccinia Orthopoxvirus: Venus Reporter Primary qHTS | Vaccinia virus Venus reporter expression, fluorescence | Potency, µM (series often up to 36.5 µM), without a hit: at the top dose activity change, negative = inhibition, actives largely listed as inhibitors | 330,000 tested, 0.46% active; active means well fitted inhibition curve with a large enough effect; inconclusive means small, poorly fitted or top-dose-only effect; inactive means no such curve, though single readings can be large or run the other way; tested in A549 cells; also: nearly all actives have a fitted effect of over 30% in size; inactives centre near -10
VACV mCherry inh – qHTS for Stage-Specific Inhibitors of Vaccinia Orthopoxvirus: mCherry Reporter Primary qHTS; 310,000 tested, 0.63% active; Potency, µM (top dose mostly 36.5 µM), without a hit: at the highest dose activity change, negative = inhibition, most hits filed as inhibitors; Vaccinia virus mCherry reporter infection, fluorescence; about a quarter of the inactives have no number; active = well fitted inhibition curve with a large enough effect; inconclusive = small, poorly fitted or top-dose-only effect; inactive = no such curve, though single readings can be large or run the other way; tested in A549 cells; also: nearly all actives have a fitted effect of over 35% in size; inactives centre near -10
Starred values were filed as active, the others as inactive; i = inactive; u = inconclusive; x = not tested or not shown; & = joins results of further samples; [ ] = another dose, or the depositor's remark. % is scaled to controls: 0 for no effect and ±100 for the full control effect; potency is read from the fitted curve at half-maximal effect.

nr	mol	Vaccinia Venus	VACV mCherry inh
1	CCOC(=O)C1(C)CCCN(C(=O)c2cc(F)ccc2C)C1 (configuration not stated)	4.1%	28.1%
2	Cc1nnc(SCC(=O)N(C)CC(=O)Nc2ccccc2Cl)s1	-10.9%	-11.4%
3	Cc1ccc(C)c2[nH]c(=O)c(CN(Cc3nnnn3C3CCCCC3)CC3CCCO3)cc12 (configuration not stated)	-14.4%	-27.0%
4	C=CCOc1ccc(CN(C)CC(=O)N(CC(C)C)c2c(N)n(CC(C)C)c(=O)[nH]c2=O)cc1	-12.1%	i
5	CC(C)c1ccc(CNC(=O)C2(C)CCCN2C)cc1 (configuration not stated)	-13.0%	i
6	Cc1ccc(-n2nc(C)c3c(C)c(CCC(=O)NCc4ccccc4Cl)c(C)nc32)cc1	-17.8%	-20.4%
7	COc1cccc(-c2cccc3c2NC(=O)C3(C)Cc2ccccc2F)c1 (configuration not stated)	-4.0%	52.8%[activator]
8	Cn1ncc(N=Cc2c(O)ccc3ccccc23)c1C(=O)N1CCOCC1	-3.5%	-10.7%
9	O=C(NNC(=O)C12CC3CC(CC(C3)C1)C2)c1ccco1	0.1%	-5.0%
10	Cc1c(C(=O)N2CCOCC2)[nH]c2c1C(=O)CC(c1ccc(Cl)cc1)C2 (configuration not stated)	u	x
11	O=[N+]([O-])c1ccc(N2CCN(CCOc3nonc3-c3ccccc3)CC2)c(Cl)c1	-13.4%	i
12	Cc1ccc2c(Cl)cc(Cl)c(OCC(=O)OCC(=O)Nc3ccc(C#N)cc3)c2n1	-5.0%	i
13	Cc1cccc(C(=O)N2CCC[C@H]2C(=O)N2CCC[C@H]2C(=O)NCc2ccncc2)c1	-10.1%	i
14	COc1ccc(C(=O)N/C(=C\c2ccc3c(c2)OCO3)C(=O)NCCc2nc3ccccc3[nH]2)cc1	-8.7%	-12.8%
15	O=C(COCc1cc(-c2ccc(F)cc2)on1)Nc1cc(F)ccc1F	-0.1%	-3.8%

(cont.)
nr	mol	Vaccinia Venus	VACV mCherry inh
16	O=C(Nc1ccc2nc3n(c(=O)c2c1)CCCCC3)c1ccccn1	-19.1%	i
17	CCOC(=O)Nc1ccc2c(COC(=O)C(NS(=O)(=O)c3ccc(Cl)cc3)C(C)O)cc(=O)oc2c1 (configuration not stated)	-18.3%	-10.3%
18	Cc1ccccc1OCC(=O)O/N=C(\N)c1ccncc1	-3.9%	i
19	COc1ccc(C(=O)c2c3ccccc3[n+]([O-])n2CCCN)cc1	-5.9%&-0.3%	-12.2%&-11.9%
20	CCCCCCc1cc2cc(S(=O)(=O)c3ccc(C)cc3)c(=O)oc2cc1O	-20.8%	12.8%
21	CCC(Sc1nc2ncccc2[nH]1)C(=O)NC1CCC(C)CC1 (configuration not stated)	-8.4%	-24.3%
22	CCOc1ccc(/C=N/NC(=O)Cc2cccs2)cc1	-22.6%	-21.1%
23	Cc1ccc2nc(-c3cccc(N)c3)oc2c1	-13.7%	i
24	O=C(Cc1cn2ccsc2n1)NCCc1ccc(F)cc1	-9.7%	x
25	CCOCCCN1CN(Cc2ccccc2)CNC1=S	-11.2%	-7.0%
26	CCc1ccc(OCC(=O)NCCN(C)C)c(Br)c1	-7.2%	x
27	CCOC(=O)c1ccc(NC(=O)CSc2nnc(-c3cccs3)n2C)cc1	-17.5%	i
28	O=C(NC(c1cccnc1)C(F)(F)F)c1cnn(-c2nccc(-c3cccs3)n2)c1C1CC1 (configuration not stated)	u	u
29	C[C@H](O)[C@@H]1CN2CCc3c([nH]c4ccccc34)[C@@H]2C[C@@H]1N(C)C(=O)c1ccco1	-21.4%	i
30	NC1=NC[C@H](Cc2ccc(O)cc2)N1CCc1cc(C(F)(F)F)cc(C(F)(F)F)c1	-0.8%	-10.7%

(list continues)
nr	mol	Vaccinia Venus	VACV mCherry inh
31	Cc1cccc(N2CCN(CCCNC(=O)Cn3ncc4c([nH]c5ccccc54)c3=O)CC2C)c1 (configuration not stated)	-17.1%	-9.4%
32	COCCNC(=O)C(=O)N/N=C/c1ccccc1C(F)(F)F	-9.2%	i
33	CCCCn1c(O)c(/C=C2\C=Nc3ccccc32)c(=O)[nH]c1=O	-12.4%	i
34	O=C(Nc1ccccc1O)c1cc(S(=O)(=O)N2CCOCC2)c(Cl)cc1Cl	-25.4%	-22.7%
35	CC(C)N(C)c1ncnc2c1ncn2[C@H]1CN(Cc2ccncc2)C[C@@H](CO)O1	-6.1%	i
36	CSc1ccc(/C=N/NC(=O)c2ccc3nc[nH]c3c2)cc1	-6.2%	u
37	CCOc1ccc(C(C)=O)cc1COC(=O)C1=COCCO1	-13.1%	x
38	CCOc1ccccc1-c1cc(C(=O)N/N=C/c2cccnc2)c2ccccc2n1	8.2%	-11.9%
39	O=C(N/N=C/C=C\c1ccc([N+](=O)[O-])cc1)c1cccnc1	15.1%	-6.9%
40	Cc1ccc(-n2nnnc2-c2ccco2)cc1	3.5%	-10.5%
41	Cc1ccc(S(=O)(=O)N(C)C)cc1NC(=O)C(C)OC(=O)c1ccc2c(c1)OCCO2 (configuration not stated)	-11.0%	-9.2%
42	Cc1cc(C)c2c(n1)SCC(=O)N2CC(=O)Nc1ccc(C)c(C)c1	-7.1%	i
43	COc1ccc(C(=O)N/N=C/c2ccc(OC)c(CN3CCCc4ccccc43)c2)cc1	-4.9%	-10.5%
44	CC(=O)c1c(C)[nH]c(C(=O)COC(=O)COc2ccccc2)c1C	-11.5%	-9.1%
45	COc1cc2cc(-c3ccc(O)cc3O)nc(C)c2cc1OC	0.6%	-20.2%

An excerpt from above in order of SMILES length, falling:
nr	mol	Vaccinia Venus	VACV mCherry inh
31	Cc1cccc(N2CCN(CCCNC(=O)Cn3ncc4c([nH]c5ccccc54)c3=O)CC2C)c1 (configuration not stated)	-17.1%	-9.4%
41	Cc1ccc(S(=O)(=O)N(C)C)cc1NC(=O)C(C)OC(=O)c1ccc2c(c1)OCCO2 (configuration not stated)	-11.0%	-9.2%
37	CCOc1ccc(C(C)=O)cc1COC(=O)C1=COCCO1	-13.1%	x

(list continues)
nr	mol	Vaccinia Venus	VACV mCherry inh
46	Fc1ccc(CSc2nncn3c2cc2occc23)c(Cl)c1	-18.7%	-16.0%
47	COCCCNC(=O)C(Cc1ccccc1)NS(=O)(=O)c1ccc2c(c1)c(=O)n(C)c(=O)n2C (configuration not stated)	-3.7%	-7.1%
48	[O-][n+]1c2ccc3nonc3c2nn1-c1ccccc1Cl	2.4%	-6.8%
49	COc1cc(-c2cc(C(=O)Nc3c(Cl)cc(Cl)cc3Cl)c3ccccc3n2)cc(OC)c1OC	-14.1%	i
50	COc1ccc(CCNC(=O)CSc2nnc(CNC(=O)c3c(F)cccc3Cl)o2)cc1OC	-8.2%	-25.6%
51	N#C/C(=C\c1ccc(O)c(O)c1)C(=O)Nc1ccccc1	-15.4%&-20.7%	-1.7%
52	CCOc1ccc(N(CC(=O)Nc2ccc3c(c2)OCO3)S(=O)(=O)c2ccccc2)cc1	-17.6%	-24.8%
53	CCOc1ccc(CCNC(=O)COC(=O)CSc2ccccc2C)cc1OCC	-14.6%	i
54	COc1ccc(CC(=O)N/N=C(\C)c2cccs2)cc1OC	-11.2%	-22.6%
55	CCCCN(C)S(=O)(=O)c1ccc(C(=O)Nc2sc3c(c2C(N)=O)CC(C)(C)NC3(C)C)cc1	-6.7%	-0.3%
56	CS(=O)(=O)c1ccc(-c2nnc(NC(=O)c3ccc4c(c3)OCCO4)o2)cc1	-6.3%[7.34 µM]	-8.5%[7.34 µM]
57	CCc1ccc(CNC(=O)C2CCCN(c3nnc(C)c4c(C)n(-c5ccc(OC)cc5)nc34)C2)cc1 (configuration not stated)	u	u
58	COc1ccc(CNC(=O)c2c(F)c(F)c(F)c(F)c2F)cc1	u	11.2µM*
59	COc1cc2c(C#CCCO)c(-c3ccsc3)oc(=O)c2cc1OC	u	-10.3%
60	COc1ccccc1CNC(=O)COC(=O)c1ccc(Cl)nc1	10.9%	-3.0%

Later entries.
nr	mol	Vaccinia Venus	VACV mCherry inh
61	CCOc1ccc(N=Cc2ccccc2O)cc1	-7.1%	-18.9%
62	CCN(C(=O)Cn1nc(C)n2c(cc3cc(C)ccc32)c1=O)c1ccccc1	-15.3%	i
63	Cc1cc(=O)[nH]c(N/N=C/c2ccc(-c3ccc(F)cc3)o2)n1	-9.0%	-12.6%
64	COCC(C)OC(=O)/C(C#N)=C\c1coc2ccc(C)cc2c1=O (configuration not stated)	-7.7%	i
65	O=C(Nc1cc(C(F)(F)F)ccc1Cl)C(NCc1ccccc1)c1ccccc1 (configuration not stated)	-7.1%	-6.1%
66	COc1cccc(C(=O)NC2CC3CCCC(C2)N3S(=O)(=O)c2ccccc2)c1 (configuration not stated)	-1.7%	-5.8%
67	CCN(CC)S(=O)(=O)c1ccc(Cl)c(NC(=O)COc2ccccc2[N+](=O)[O-])c1	u	u
68	OCCCn1c(C2CCCN2c2nc(-c3ccc(F)cc3)cs2)nc2cc(Cl)c(Cl)cc21 (configuration not stated)	-21.2%	u
69	CC(=O)N1Cc2ccccc2CC1C(=O)O (configuration not stated)	-6.6%	-7.0%
70	CC(OC(=O)Cn1cnc2c1c(=O)n(C)c(=O)n2C)C(=O)c1ccccc1 (configuration not stated)	-0.4%	i
71	O=C(O)c1ccc(OCc2occc2C(=O)O)cc1	8.6%	-5.3%
72	O=c1cc(C2CCNCC2)[nH][nH]1	-5.5%	-14.6%
73	Cc1ccc(C)c(S(=O)(=O)N2CCN(C(=O)Cc3c(F)cccc3Cl)CC2)c1	-2.1%	-15.0%
74	O=C(NNC(=O)c1ccc(Cl)cc1Cl)c1ccncc1	-15.7%	-16.3%
75	CN(C)C(=O)c1nc2ccc(Cl)cn2c1CN1CCN(c2ncccn2)CC1	2.7%	-5.5%

The list goes on:
nr	mol	Vaccinia Venus	VACV mCherry inh
76	COC(=O)C1=CN(Cc2cccs2)C=C(C(=O)OC)C1c1cccc(OC)c1OC	61.2%[activator]	-7.6%
77	Cc1ccccc1NC(=O)Cc1nc(CSc2nnc(-c3ccc4c(c3)OCO4)o2)cs1	-10.0%	x
78	Cc1cc(Cl)ccc1C(=O)C1CCCN(C(=O)CCn2cnnn2)C1 (configuration not stated)	-4.2%	i
79	O=c1[nH]c2c(-c3nc(-c4ccc(Cl)cc4)cs3)c(O)cn2c2ccccc12	-3.1%	25.5%
80	CCc1ccc(NC(=O)c2ccc3c(c2)C(=O)N(Cc2ccco2)C3=O)cc1	-5.3%	13.3%
81	CN(C)C(=O)Oc1cccc([N+](C)(C)C)c1	-4.4%&-18.6%&-4.7%	-11.7%
82	CCOC(=O)c1c(NC(=O)C(F)(OC)C(F)(F)F)sc2c1CCN(C)C2 (configuration not stated)	-17.9%	x
83	CCc1ccccc1NS(=O)(=O)Cc1ccccc1	-9.1%	-0.9%
84	O=C1c2ccccc2C(=O)C1(c1ccccc1)N1CCN(c2cccc(C(F)(F)F)c2)CC1	-12.8%	-15.3%
85	COc1ccc(CN2CCC3(CCC(CNC(=O)c4ccco4)O3)CC2)cc1OC (configuration not stated)	2.0%	-0.7%
86	COc1cccc(/C=C2/SC(=S)N(CCC(=O)N3CCOCC3)C2=O)c1	u	u
87	COc1cc(Nc2ncnc3onc(-c4ccc(Cl)cc4)c23)cc(OC)c1	-1.5%	-2.5%
88	Cc1ccc2nc(-c3c[nH]c4ccccc34)c(Nc3ccccc3C)n2c1	-13.3%	-11.4%
89	CCn1cc(C(=O)NCc2ccccc2Cl)c(=O)c2cc(S(=O)(=O)N3CCCCCC3)ccc21	u	u
90	O=C(CSc1nc2[nH]ncc2c(=O)[nH]1)Nc1ccc(Cl)c(Cl)c1	-17.4%	-20.8%

Later entries:
nr	mol	Vaccinia Venus	VACV mCherry inh
91	COc1ccc(OC)c(NC(=O)Cn2c(=O)n(CC3CCCO3)c(=O)c3cc(OC)c(OC)cc32)c1 (configuration not stated)	-13.9%&-2.4%	-13.8%&-2.2%
92	CCC12CN3CCN(CC(C3)/C1=N/NC(N)=O)C2	-1.8%	-1.8%
93	Cc1ccc2nc(-c3ccc(F)cc3)c(NC(C)(C)CC(C)(C)C)n2c1	-10.8%	0.2%
94	Cc1c(C(=O)NCCc2ccccc2)oc2ccc(S(=O)(=O)N3CCC4(CC3)OCCO4)cc12	-13.1%	-10.7%
95	CC1=CC(C)C2C(=O)N(CCC[N+](C)(C)C)C(=O)C2C1 (configuration not stated)	u	x
96	Cc1ccccc1NC(=O)Cc1nc(COC(=O)C(C)(C)Oc2ccc(Cl)cc2)cs1	-10.0%	-3.9%
97	O=C(COc1ccc(Cl)cc1)N1CCN(c2ncccn2)CC1	-16.2%	x
98	Cc1ccc(-c2nc3cc(N)ccc3o2)c(C)c1	u	-3.7%&-27.7%
99	CCSc1nc(=O)n(-c2ccccc2)c(C)c1C(C)=O	-0.4%	-6.1%
100	COc1ccc(C(=O)CCN2CCN(c3ccc(OC)cc3)CC2)cc1	-26.9%	-16.9%
101	COC(=O)c1cn([C@@H]2C[C@@H](C(=O)Nc3cccc(SC)c3)N(C3CCCC3)C2)nn1	-1.0%	-7.2%
102	NC(=O)C1CCN(C(=O)CSc2nc3c(c(-c4ccccc4)n2)CCCC3)CC1	-3.7%	-4.4%
103	Oc1ccc(Cl)cc1N=Cc1sc2ccccc2c1Cl	-19.4%	-17.0%
104	O=C(CSc1nnc2ccc(-c3ccncc3)nn12)c1cccs1	-4.4%	-20.7%
105	O=C(c1ccc(=O)[nH]c1)N(Cc1ccco1)C1(C(=O)NC2CCCCC2)CCCCC1	-7.9%	-17.2%

Molecules listed so far containing a COOH group (two):
nr	mol	Vaccinia Venus	VACV mCherry inh
69	CC(=O)N1Cc2ccccc2CC1C(=O)O (configuration not stated)	-6.6%	-7.0%
71	O=C(O)c1ccc(OCc2occc2C(=O)O)cc1	8.6%	-5.3%

Assay outcomes as filed in PubChem.
